HNF4A DNA FP = change in binding of human HNF4A to DNA, primary screen, biochemical, fluorescence polarization, FITC-DNA; AID 1224865, 2016; Hepatocyte nuclear factor 4-alpha (Homo sapiens), P41235; 360,000 compounds, 0.3% hits; activity change, % at 10 µM; 1 h; in the data active = activity change above about 30%, passing the limit was not always enough;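 also: controls were the assay level and a saturating level of protein; the project sought stronger binding though the title names inhibitors; some compounds called inactive have numbers as strong as hits; positive values seem to mean higher polarization but the record does not say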
ALR H2O2 inh = inhibitors of human ALR sulfhydryl oxidase, primary screen, biochemical, H2O2 detection, HRP-luminol luminescence, single point | 290,000 compounds, 3.8% hits | AID 485317, 2010 | FAD-linked sulfhydryl oxidase ALR (Homo sapiens), P55789 | purified ALR, DTT oxidation | inhibition, % (no concentration beside the values);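 active = mean and each replicate at 75% or more; inconclusive = only one of the two met; inactive = neither met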;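 also: stock transfer was 7.5 nL into about 7.5 µL; 0% = neutral wells and 100% = wells with inactivated enzyme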
Target sequence (P55789 whole entry, looked up): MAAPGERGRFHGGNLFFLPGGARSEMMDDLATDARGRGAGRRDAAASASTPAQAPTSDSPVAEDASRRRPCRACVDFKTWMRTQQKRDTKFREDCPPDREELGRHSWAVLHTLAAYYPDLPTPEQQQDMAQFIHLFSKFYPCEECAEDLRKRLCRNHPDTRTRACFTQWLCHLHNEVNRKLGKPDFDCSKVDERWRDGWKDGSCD
FGF22 binding = binders of human FGF22 protein, primary screen, FGF22 synaptogenesis inhibitor project, biophysical, thermal shift, single point; Fibroblast growth factor 22 (Homo sapiens), Q9HCT0; recombinant FGF22 thermal shift, SYPRO orange fluorescence; percent of sucrose octasulfate shift, DMSO zero; calls only at 9.99 µM; 340,000 compounds, 1.5% hits;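 active = melting point raised past a set limit in the mean and every replicate; inconclusive = no clear call; three in four hits are not shown here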
Target sequence (Q9HCT0 whole entry, looked up): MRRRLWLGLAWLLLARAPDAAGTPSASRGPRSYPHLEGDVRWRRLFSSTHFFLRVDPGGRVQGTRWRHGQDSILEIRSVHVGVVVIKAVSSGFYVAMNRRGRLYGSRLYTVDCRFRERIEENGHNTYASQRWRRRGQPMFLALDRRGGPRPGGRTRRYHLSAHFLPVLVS
B2AR ag = beta2AR agonists driving receptor internalization, primary screen, cell-based, FAP fluorogen, flow cytometry. response, % (no concentration beside the values). Am2.2-beta2AR cells; reference of the scale not given here. Beta-2 adrenergic receptor (Homo sapiens), P07550. 340,000 compounds, 0.43% hits;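 active = response above a set limit, near 3 SD of response in nonfluorescent compounds, cut at about 42% in these data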;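 also: stock transfer was 100 nL into about 11 µL; a reference agonist was the positive control; negative values mostly stem from fluorescent compounds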
UCH37 DUB inh = inhibitors of human UCH37 deubiquitinase, primary screen, biochemical, Ub-AMC cleavage, fluorescence; purified proteasome/UCH37; Ubiquitin carboxyl-terminal hydrolase isozyme L5 (Homo sapiens), Q9Y5K5; 330,000 compounds, 0.33% hits; AID 588478, 2011; inhibition, % (concentration not given with the values);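 active = mean of two replicates above 20%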;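 also: 0% = compound-free wells with enzyme and 100% = wells lacking proteasome; stock transfer was 100 nL into about 20 µL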
Target sequence (Q9Y5K5 whole entry, looked up): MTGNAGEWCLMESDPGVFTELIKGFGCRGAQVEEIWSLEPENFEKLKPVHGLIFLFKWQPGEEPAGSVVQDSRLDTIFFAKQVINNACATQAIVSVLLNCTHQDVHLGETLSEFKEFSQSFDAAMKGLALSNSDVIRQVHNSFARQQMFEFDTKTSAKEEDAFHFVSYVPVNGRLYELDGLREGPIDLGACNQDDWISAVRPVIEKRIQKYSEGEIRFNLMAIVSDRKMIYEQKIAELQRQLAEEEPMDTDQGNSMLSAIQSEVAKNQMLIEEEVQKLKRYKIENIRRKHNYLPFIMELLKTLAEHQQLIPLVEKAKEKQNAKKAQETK
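Test system – human UCH37 enzyme supplied as purified proteasome complex · Incubation – 30 min preincubation with enzyme, 25 min cleavage at room temperature · Detection – AMC fluorescence from Ub-AMC cleavage, excitation 355 nm, emission 460 nm · Benchmarks – no-proteasome wells (full inhibition) and compound-free wells (no inhibition)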
rRNA inh HTS = reduced GFP signal of wild-type E. coli, primary screen, bacterial rRNA inhibitor project, GFP/RFP fluorescence, OD600, single point. E. coli WT GFP vs humanized-ribosome RFP mutants, 24 h; stronger effect = lower value; DMSO median 0, no signal -100. GFP signal change (wild-type ribosome), % (no concentration beside the values). 350,000 compounds, 1.6% hits. AID 720706, 2013;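 active = significant combined selectivity score with lowered wild-type GFP, culture density cut under 30%, mutant RFP and density less affected; inactive = any of these conditions unmet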; also: one replicate is shown; some compounds called inactive have numbers as strong as hits
Ecoli growth = E. coli growth inhibition, primary screen, OD600; OD600 absorbance (concentration not given with the values); Escherichia coli growth, 23 h; stronger effect = lower value; 330,000 compounds, 0.21% hits;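 active = OD600 absorbance below the run mean of sample wells minus 3.6 SD, in any replicate, cut at about 0.56 in these data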;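 also: stock transfer was 300 nL into about 60 µL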
rRNA inh HTS OD600 = second read-out of rRNA inh HTS, no call of its own (marks repeat the call); OD600 change, %; measured here: OD600 growth;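 optical density of the mix in the first replicate; 0 = DMSO median and -100 = no signal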
rRNA inh HTS RFP = second read-out of rRNA inh HTS, no call of its own (marks repeat the call); RFP signal change, %; measured here: RFP humanized mutant strains;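 first replicate; 0 = DMSO median and -100 = no signal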
An asterisk follows results filed as active; i = inactive; u = inconclusive; x = no result given. These rows are one share of the data. The share of hits here may be higher or lower than overall.

SMILES	HNF4A DNA FP	ALR H2O2 inh	FGF22 binding	B2AR ag	UCH37 DUB inh	rRNA inh HTS	rRNA inh HTS OD600	rRNA inh HTS RFP	Ecoli growth
COc1ccc(N2C(=O)C3CCCN3C2c2cc(OC)c(OC)cc2OC)cc1 (stereo not drawn)	2.1	-70	i	1	5.1	11	6	3.6	0.73
Cc1ccc(S(=O)(=O)NC2CCOC(C)(C)C2)cc1 (stereo not drawn)	0.9	-5	x	-1	-0.5	x	x	x	0.73
CCCc1nc(NC(C)=O)c(C#N)c(-c2ccco2)c1CC	0.3	0	x	4	-21	x	x	x	0.67
N/C(Cc1ccc(Cl)cc1)=N\OC(=O)c1ccc2ccccc2c1	-4.3	-4	x	-3	1.3	x	x	x	0.73
COC(=O)c1sccc1NC(=S)N1CC(C)CC(C)C1 (stereo not drawn)	3.4	19	x	2	-0.8	x	x	x	0.69
CC1CCc2c(nc3ncnn3c2NCCN(C)C)C1 (stereo not drawn)	-2.1	0	i	-3	-43	25	22	2.0	0.69
CC1(C)CC(NCc2cccc([N+](=O)[O-])c2)CC(C)(C)N1	1.9	-3	i	7	3.3	-4	-6	-3.5	0.71
C=CCNc1ncnc2c1ncn2[C@H]1CN(Cc2ccccc2)C[C@@H](CO)O1	0.8	x	i	x	x	1	11	3.2	x
O=C(O)c1cc(-c2cc3ccccc3o2)nn1-c1ccccc1	3.6	26	i	-3	-17	-12	-22	2.3	0.68
CC(=O)Nc1ccc(C(=O)CSc2nccc(=O)[nH]2)cc1	4.0	99*	i	11	x	13	13	4.3	x
CCOC(=O)c1cnc[nH]c1=O	-2.5	x	i	2	0.4	7	9	2.2	0.64
O=C(Oc1cccnc1)c1cc2ccccc2oc1=O	-0.6	6	x	0	-8.0	x	x	x	0.69
Cn1c(N)c(C(=O)COC(=O)c2cc(C(F)(F)F)nc3ccccc23)c(=O)n(C)c1=O	x	-5	i	x	-1.2	3	21	7.8	0.64
O=c1[nH]cnc2c1C(c1ccccc1[N+](=O)[O-])c1c(nc[nH]c1=O)O2	1.0	-3	x	1	2.4	x	x	x	0.69
CCC(Oc1ccccc1C)C(=O)Nc1ccc(S(=O)(=O)Nc2cc(C)on2)cc1 (stereo not drawn)	-1.2	-2	i	-3	1.1	-4	0	0.4	0.68
Cc1cccc(NC(=O)c2cc(-c3cc(C)cc(C)c3O)n[nH]2)c1	31*	3	i	9	1.9	-30	-60	-6.8	0.67
O=C(NCCN1C(=O)S/C(=C/c2cccnc2)C1=O)c1cccs1	3.8	x	i	9	5.8	1	11	0.8	0.69
CCOc1ccccc1CNC(=O)C1CCCN(c2nn3c(=O)cc(C)nc3s2)C1 (stereo not drawn)	2.2	2	i	-14	1.3	2	6	-0.5	0.67
O=C1c2ccccc2-c2nnc(-c3ccccc3)cc21	-0.6	-10	x	-16	0.3	x	x	x	0.77
COC(=O)c1ccc(OCCN2CCCCCC2)cc1	0.8	-32	i	1	0.8	0	7	0.0	0.67
CC(=O)Nc1ccc(NC(=O)CNS(=O)(=O)c2ccc(C)cc2)cc1	-1.2	-6	x	-9	1.1	x	x	x	0.66
Nc1nc2ncccc2cc1C(=O)NCCc1cccs1	-3.2	x	i	x	x	-7	-4	-3.2	x
CCOC(=O)C(Cc1ccc(O)cc1)NC(=O)CNC(=O)C1CCCN1C(=O)OC(C)(C)C (stereo not drawn)	4.7	28	i	-1	0.4	17	17	7.3	0.65
COc1cccc(-n2c(=S)[nH]c3c(oc4ccccc43)c2=O)c1	4.3	u	i	-4	5.6	-1	-9	-3.4	0.65
COC(=O)COc1ccc(Oc2cc(C)nc(SC)n2)nn1	-2.0	-4	i	-3	4.7	10	6	-5.7	0.73
CCOC(=O)N1CCN(C(=O)c2ccc3c(c2)sc2nc(-c4ccccc4)cn23)CC1	1.5	-3	x	-1	3.0	x	x	x	0.72
COCCCNCCOCCOc1ccccc1-c1ccccc1	-2.1	-2	x	-1	2.8	x	x	x	0.69
Cc1ccc(-n2nc(C(=O)O)cc2-c2ccccc2Cl)cc1	-1.0	26	i	-6	3.0	-41	-36	-10	0.63
O=C(CCCn1c(=S)[nH]c2ccccc2c1=O)N1CCN(c2cccc(Cl)c2)CC1	-2.6	-2	x	1	3.3	x	x	x	0.75
COc1ccccc1CCNC(=O)C(=O)NCCC1CCCCN1S(=O)(=O)c1ccccc1 (stereo not drawn)	1.5	-1	i	1	1.0	-3	-8	16	0.68

Taken from above.
CCOC(=O)N1CCN(C(=O)c2ccc3c(c2)sc2nc(-c4ccccc4)cn23)CC1 | UCH37 DUB inh = 3.0
COC(=O)COc1ccc(Oc2cc(C)nc(SC)n2)nn1 | HNF4A DNA FP = -2.0

Further entries:
SMILES	HNF4A DNA FP	ALR H2O2 inh	FGF22 binding	B2AR ag	UCH37 DUB inh	rRNA inh HTS	rRNA inh HTS OD600	rRNA inh HTS RFP	Ecoli growth
COc1ccc(NC(=O)c2oc3ccccc3c2NC(=O)c2ccc3c(c2)OCO3)cc1	-2.4	-6	x	2	-9.8	x	x	x	0.69
CCN(CC)c1ccc(N=Cc2ccc([N+](=O)[O-])o2)cc1	3.4	x	i	4	7.7	x	x	x	0.15*
O=C(NC(=S)Nc1cc(C(F)(F)F)ccc1N1CCOCC1)c1sc2ccccc2c1Cl	0.3	-6	i	-7	6.1	2	0	-0.6	0.71
O=C1[C@@H]2Cc3c([nH]c4ccccc34)C(c3ccc([N+](=O)[O-])cc3)N2C(=O)CN1C1CC1 (stereo partly drawn)	3.0	44	i	1	3.2	4	11	1.8	0.61
CCN1CCN(CC(=O)Nc2ccc3c(c2)OCO3)C(=O)C1=O	2.6	-7	i	-6	5.5	10	11	-0.2	0.68
O=[N+]([O-])c1ccccc1/C=N/Nc1nnc(-c2ccccc2)c(-c2ccccc2)n1	0.2	3	x	-7	x	x	x	x	x
CC(C)C(=O)NCCSc1c[nH]c2ccccc12	4.0	99*	i	2	2.0	8	2	-1.6	0.69
O=C(NCCO)C(=O)Nc1cc2c3c(c1)CCC(=O)N3CCC2	0.1	-8	i	-5	3.5	2	7	-1.6	0.71
COC(=O)c1ccc(NC(=O)CSc2nncc3ccc(OC)c(OC)c23)cc1	0.2	24	x	-12	0.3	x	x	x	0.67
CCNc1nc(N)nc(-c2cc(Cl)ccc2OC)n1	0.1	4	x	-7	-1.0	x	x	x	0.78
O=C1c2cccc3cc([N+](=O)[O-])cc(c23)C(=O)N1CC1CCCO1 (stereo not drawn)	-1.6	35	i	-13	3.6	x	x	x	0.67
COC(=O)c1ccc(Cn2cc(/C=C\[N+](=O)[O-])c3ccccc32)o1	4.9	45	i	8	0.2	1	3	0.9	0.7
COc1ccc(CNS(=O)(=O)c2c(C(=O)N3CCCCCC3)c(C)n(C)c2C)cc1	-0.2	-5	i	-6	2.1	3	2	0.0	0.66
COc1cc(C2(O)CCCCC2C)cc(OC)c1OC (stereo not drawn)	-1.6	-5	x	18	4.0	x	x	x	0.65
COc1cccc(CN(C)C(=O)C2CCN(S(=O)(=O)c3cccs3)CC2)c1OC	-4.2	-4	i	3	-2.3	8	-2	0.2	0.71
CN1CCN(S(=O)(=O)c2ccc(NC(=S)NC(=O)C3CCCCC3)cc2)CC1	-3.0	5	i	-3	2.0	-3	-2	1.3	0.74
CCCCN1CCC(=O)NC1=O	-2.9	x	i	-2	2.1	10	10	4.0	0.63
O=C1CSC(c2ccc([N+](=O)[O-])cc2)N1c1ccccc1 (stereo not drawn)	7.9	98*	i	14	1.2	4	3	-5.0	0.65
CC(C)CC(NC(=O)/C(=C\c1ccco1)NC(=O)c1ccco1)C(=O)O (stereo not drawn)	-8.3	3	i	0	8.6	11	14	7.1	0.66
Cc1ccc(Cn2nnc3c(=O)[nH]c(C4CCCN(C(=O)Nc5ccc(F)cc5)C4)nc32)cc1 (stereo not drawn)	1.4	x	x	-6	3.8	x	x	x	0.71
CCOC(=O)C1(CCCc2ccccc2)CCN(C(=O)CCCn2cncn2)CC1	2.9	-5	i	11	5.1	-20	-24	-4.0	0.66
Cc1cc(NC(=O)CCC(=O)N(Cc2ccco2)C2(C(=O)NC3CCCC3)CCCCC2C)no1 (stereo not drawn)	2.5	-8	i	-3	0.5	x	x	x	0.71
Cc1ccc(-n2nc3c(c2NC(=O)c2ccc4c(c2)OCO4)CS(=O)C3)cc1 (stereo not drawn)	-0.8	-17	x	-10	4.4	x	x	x	0.68
COc1ccccc1NC(=O)Cn1cc(C#N)c2ccccc21	-2.9	-2	x	4	5.5	x	x	x	0.65
COc1ccccc1NC(=O)N1CCN(CCc2ccccc2)CC1	-1.2	-6	i	-5	2.8	-2	3	-0.5	0.67
O=C(N/C(=C\c1ccc(Br)cc1)C(=O)N1CCOCC1)c1ccco1	4.1	x	i	-1	1.1	1	-1	-2.3	0.7
CCN(CC)C(=O)/C(=C/c1cccc([N+](=O)[O-])c1)NC(=O)c1ccco1	-1.5	-8	i	-7	2.1	21	14	2.7	x
O=C(NCC1CCCO1)C(c1cccs1)N(C(=O)c1ccc(-c2ccccc2)[nH]1)C1CCCC1 (stereo not drawn)	0.9	-8	x	7	1.9	x	x	x	0.7
CN=C(C)/C(C(=O)OC)=C(/O)c1c(F)cccc1F	-1.3	-5	i	6	5.3	8	2	0.5	0.64
COc1ccc(/C(C#N)=C/c2c(-c3ccc(Cl)cc3)nc3c(C)cccn23)cc1	0.4	-1	x	2	3.9	x	x	x	0.81
Cc1nccn1-c1ccc(C(F)(F)F)cc1NC=O	1.9	-4	x	6	0.1	x	x	x	0.71
O=C(O)Cn1c(-c2ccccc2)cc2ccccc21	-2.2	35	i	-3	-13	4	-11	1.1	0.69
CCCN1C(=O)C2(SC(NC(C)=O)=NN2C(C)=O)c2cc(C)ccc21 (stereo not drawn)	31	x	i	1	1.6	17	0	1.9	0.71
O=C(Cc1cccc([N+](=O)[O-])c1)Nc1cccc(C(=O)N2CCCC2)c1	-1.4	0	i	8	0.6	-9	-3	-5.7	0.65
CCCOc1ccc(NC(=O)C2CC(=O)N/C(=N/N=C(\C)CCc3ccc4c(c3)OCO4)S2)cc1 (stereo not drawn)	1.9	-5	x	-8	x	x	x	x	x
CCOC(=O)c1oc2ccc(S(=O)(=O)n3nc(-c4cc(OC)c(OC)c(OC)c4)cc3N)cc2c1C	5.1	28	i	2	4.7	6	19	0.9	0.68
COc1ccc(OC)c(-n2nnnc2SCC(=O)Nc2ccc3c(c2)OCCO3)c1	0.8	0	x	10	1.4	x	x	x	0.73
O=C(CNC(=O)c1ccccc1)OCC(=O)c1c[nH]c2ccccc12	0.2	-2	i	2	4.1	-1	-12	2.5	0.66
